High-throughput results (PubChem)
Six1-Eya2 inh: blocks human Six1 binding to Eya2; AlphaScreen GST-Six1/His-Eya2 binding, biochemical; active compounds read low; control for the full effect not named in the record; activity change, % (test concentration not listed); Q15475+O00167; actives 0.56% (n = 360,000); in the data active = activity change below about -65%; inconclusive = about -30% to -65%; inactive = above about -30%; further: on the % scale 0 is the no-effect control and ±100 the full control effect
Target sequence (O00167 whole entry, looked up): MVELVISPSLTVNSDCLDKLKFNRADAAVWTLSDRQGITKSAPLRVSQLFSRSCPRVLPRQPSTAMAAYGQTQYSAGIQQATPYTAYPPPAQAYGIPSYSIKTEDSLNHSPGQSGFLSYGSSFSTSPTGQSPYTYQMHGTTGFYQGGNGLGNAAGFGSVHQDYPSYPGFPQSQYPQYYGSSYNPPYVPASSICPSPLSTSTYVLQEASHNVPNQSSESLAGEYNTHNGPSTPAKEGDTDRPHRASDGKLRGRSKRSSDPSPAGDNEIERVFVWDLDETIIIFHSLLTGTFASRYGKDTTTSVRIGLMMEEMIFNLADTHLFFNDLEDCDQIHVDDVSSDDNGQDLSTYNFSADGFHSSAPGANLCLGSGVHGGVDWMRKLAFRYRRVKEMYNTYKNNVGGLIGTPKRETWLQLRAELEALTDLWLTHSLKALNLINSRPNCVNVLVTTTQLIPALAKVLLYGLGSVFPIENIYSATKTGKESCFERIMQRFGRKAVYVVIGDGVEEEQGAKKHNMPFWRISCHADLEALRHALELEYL
Target sequence (Q15475 whole entry, looked up): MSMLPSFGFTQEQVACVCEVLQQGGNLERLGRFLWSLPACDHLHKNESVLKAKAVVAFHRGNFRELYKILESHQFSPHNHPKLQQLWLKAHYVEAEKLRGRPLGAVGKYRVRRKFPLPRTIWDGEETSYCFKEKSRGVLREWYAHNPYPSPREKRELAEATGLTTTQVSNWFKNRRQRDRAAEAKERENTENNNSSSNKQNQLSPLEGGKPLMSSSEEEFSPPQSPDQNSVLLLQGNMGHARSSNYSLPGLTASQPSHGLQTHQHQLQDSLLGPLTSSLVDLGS
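Compounds are tested against tagged Six1 and Eya2 proteins bridged by glutathione donor and nickel acceptor beads; after a one-hour incubation at 37 °C without light, AlphaScreen emission is recorded.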
CtBP-E1A blk: inhibitors of CtBP/E1A interaction; AlphaScreen GST-E1A/His-CtBP binding, 1536-well; active compounds read low; control for the full effect not named in the record; actives 0.49% (n = 340,000); activity change, % (test concentration not listed); in the data active means activity change below about -65%; inconclusive means about -30% to -65%; inactive means above about -30%; further: on the % scale 0 is the no-effect control and ±100 the full control effect
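AlphaScreen with 125 nM GST-E1A and 125 nM His-CtBP (5X stocks) in Tris pH 8.0, 300 mM NaCl, BSA, Tween 20, TCEP. Compounds preincubated 2 h at 37 deg C, then glutathione donor/nickel acceptor beads added for 1 h at 37 deg C in dark.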
TRPML1 agonist: human mucolipin-1 channel agonism; Q9GZU1; TRPML1-expressing cells, Ca2+ dye fluorescence, FDSS; host cell line not named in the record; reference of the full effect not given here; activation, % (no concentration beside the values); actives 0.12% (n = 410,000); in the data active = activation above about 50%; inconclusive = about 30% to 50%; inactive = below about 30%; further: 0% is about no effect; the text of the record puts the active cut at 80%
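Tetracycline-induced TRPML1-DL cells are seeded and incubated overnight before loading with a no-wash Ca2+ dye and quencher. Agonist activity is taken from the 110 s fluorescence read following compound pin-transfer on an FDSS, before EC80 54-4 challenge.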
D2 PAM: positive allosteric modulators of human D2 dopamine receptor. P14416. DiscoveRx D2 beta-arrestin cells, luminescence, 90 min; 100% = 57 uM dopamine signal. potentiation, % (concentration not given with the values). actives 0.23% (n = 360,000); active = potentiation of 50% or more; inconclusive = 30% to 50%; inactive = 30% or less;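 further: compound concentration not given in the record; tested on top of an EC20 dose of dopamine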
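D2 cells co-treated with compound plus 50 nM dopamine (EC20) for 90 min at 37 deg C to detect potentiation. Beta-arrestin recruitment was read as enzyme-fragment luminescence after 1 h at ambient temperature. Full response was set by 57 uM dopamine.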
PINK1 expr mod: changes PINK1 expression; PINK1 immunofluorescence, high-content cytometry, 24 h; Potency, µM (series often up to 76.6 µM), without a hit: at the top dose activation (PINK1 increase), actives largely listed as activators; actives 0.2% (n = 410,000); AID 624263; active = well fitted activation curve with a large enough effect; inconclusive = small, poorly fitted or top-dose-only effect; inactive = flat fitted curve, though single readings scatter; cell line not stated here;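 further: potency means the concentration at half of the fitted maximal effect; % of control where 0% means no effect; nearly all actives have a fitted effect of over 65% in size; a mitochondrial uncoupler was the plate control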
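Cells are seeded, rested 12 hours, then given compound at five concentrations or DMSO for 24 hours. After fixation, blocking and antibody staining, PINK1 amount and mitochondrial localization are scored; CCCP serves as control.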
D2 ag: agonists of human D2 dopamine receptor (beta-arrestin); DiscoveRx PathHunter D2 beta-arrestin, luminescence, 90 min; 100% = 57 uM dopamine signal; activation, % (no concentration beside the values); actives 0.084% (n = 360,000); AID 624465; in the data active = activation above about 40%; inconclusive = about 15% to 40%; inactive = below about 15%; further: compound concentration not given in the record; the text of the record calls up to 30% inactive
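DiscoveRx PathHunter D2 beta-arrestin cells (2,100/well) attached overnight, then compound-stimulated 90 min at 37 C in HBSS/10 mM HEPES/0.1% Tween-20 buffer; beta-galactosidase complementation read by luminescence after 1 h at ambient temperature. Dopamine 57 uM final (EC100) as control.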
The depositor's hits bear a star; ? = inconclusive; . = not tested or not shown; & = joins results of further samples; [ ] = remark or other dose. Outcome played no part in choosing rows; 1.3% or so of the library scored in one or more.

SMILES | Six1-Eya2 inh | CtBP-E1A blk | TRPML1 agonist | D2 PAM | PINK1 expr mod | D2 ag
COc1cc(NC(=O)c2oc3ccccc3c2C)ccc1NC(=O)c1ccco1 | -7.5 | 0.0 | 1.1 | 3.8 | 8.2% | 2.3
CN1CCN(CC(=O)N(C)c2nc(-c3ccccc3)cs2)CC1 | -9.7 | -2.7 | 1.2 | -14.5 | 3.3% | -1.6
NC(=O)c1ccsc1NC(=O)COC(=O)CNC(=O)c1ccc(F)cc1 | -6.0 | . | -1.8 | 1.0 | 1.0% | 0.6
Nc1c(C(=O)N/N=C/c2ccc(OCc3ccccc3)cc2)cnn1-c1ccccc1 | -1.0 | . | 1.0 | -2.9 | 7.1% | -0.9
Cn1cccc1CNC(=O)Nc1ccccc1 | -6.8 | -15.4 | 0.2 | 8.0 | 4.8%[38.3 µM] | -0.9
COc1ccc(-c2cc(=O)c3cc(C)ccc3[nH]2)cc1 | 3.3 | 7.2 | 0.1 | -21.5 | 2.9% | -3.9
Cn1c(=O)c2nc(SCc3ccccc3)n(C)c2n(C)c1=O | -3.0 | -12.0 | 0.7 | -4.0 | -0.1% | -4.9
COc1cc2c(cc1OC)C(c1ccc(-c3ccc(Cl)cc3Cl)o1)=NCC2 | -26.9 | -26.1 | 0.0 | -13.2 | 3.7% | -0.9
Cc1ccc(NC(=O)CSc2nnc(CN3CCOCC3)n2-c2ccccc2)cc1 | 19.6 | 0.0 | 1.0 | -15.6 | -2.3% | -2.3
O=C(O)c1ccc(/C=N/N2CCN(Cc3ccc(Cl)cc3)CC2)cc1 | 7.3 | 6.2 | -0.8 | 0.7 | 3.2% | 5.1
CC(c1ccon1)N(C)C(=O)CCc1nnc(Cc2ccc(-c3ccccc3)cc2)o1 (configuration not stated) | -3.4 | . | 2.6 | 5.3 | 0.3% | 7.5
Cc1ccc(S(=O)(=O)NC(C)(C)CN2CCNCC2)cc1 | 6.4 | 10.7 | 0.4 | -9.6 | 0.7% | -0.5
C#CCOCCOCCOCCNc1nc(N2CCN(C(=O)[C@H]([C@@H](C)CC)n3cc(CCC(=O)O)nn3)CC2)nc(N2CCN(C(=O)[C@H](CCCCN)n3cc(CCC(=O)O)nn3)CC2)n1 | 6.0 | 6.0 | 0.8 | -3.9 | -1.1% | -4.1
CCOc1ccc(N(C(C)C(=O)NN=C2CCCCCCC2)S(C)(=O)=O)cc1 (configuration not stated) | -0.8 | 1.1 | 1.7 | -8.3 | 1.5% | 0.6
Cc1ccccc1C(=O)O/N=C(\N)c1ccccc1 | 26.0 | 29.4 | 1.2 | 1.9 | -0.3% | ?

One compound at a time, from the list above.
Shown for CN1CCN(CC(=O)N(C)c2nc(-c3ccccc3)cs2)CC1 : Six1-Eya2 inh: -9.7; CtBP-E1A blk: -2.7; TRPML1 agonist: 1.2; D2 PAM: -14.5; PINK1 expr mod: 3.3%; D2 ag: -1.6
Shown for Cc1ccc(NC(=O)CSc2nnc(CN3CCOCC3)n2-c2ccccc2)cc1 : Six1-Eya2 inh: 19.6; CtBP-E1A blk: 0.0; TRPML1 agonist: 1.0; D2 PAM: -15.6; PINK1 expr mod: -2.3%; D2 ag: -2.3

Next part
SMILES | Six1-Eya2 inh | CtBP-E1A blk | TRPML1 agonist | D2 PAM | PINK1 expr mod | D2 ag
CCn1c(SCC(=O)NC2CC2)nnc1-c1ccccc1 | 0.5 | -1.3 | -0.6 | -0.4 | 0.6% | -2.6
Cc1ccc(S(=O)(=O)N2CCN(Cc3nnc(-c4c(-c5ccccc5)noc4C)o3)CC2)cc1 | 3.5 | 1.3 | 0.2 | -8.8 | -0.9% | -5.2
COc1ccccc1/C=C/C(=O)Nc1ccc2c(c1)OCCO2 | -12.8 | -9.3 | 2.1 | -37.3 | 4.6% | 1.5
NC(=O)c1ccccc1NC(=O)/C=C/c1cccc(Cl)c1 | -0.9 | 1.6 | 0.8 | -8.6 | . | -2.7
O=C(O)c1ccc2c3c(cccc13)C(=O)N(OS(=O)(=O)c1ccccc1)C2=O | -77.1* | ? | 0.0 | 2.4 | -1.2% | 0.4
NC(=O)Cc1nc2scc(-c3ccc(Cl)cc3)c2c(=O)[nH]1 | -6.4 | -5.3 | 2.5 | 5.1 | -2.3% | 0.4
CCC(=O)C(C#N)(c1ccc(OC)c(OC)c1)C(C)C (configuration not stated) | 0.2 | . | -0.5 | 5.1 | 4.6% | 0.2
O=C(CS(=O)(=O)c1cccc(C(F)(F)F)c1)Nc1ccccc1Cl | 2.0 | 0.2 | 0.1 | -5.7 | 3.0% | -0.7
CC(C(=O)NC1CCCCCC1)N(c1ccccc1)S(C)(=O)=O (configuration not stated) | 9.4 | -1.8 | -0.1 | -11.5 | -1.6% | -2.4
COc1ccccc1NS(=O)(=O)c1ccc(C)c(NC(=O)C2CCCO2)c1 (configuration not stated) | 1.3 | . | -0.4 | 0.2 | 0.0% | -3.4
CC(C)C(=O)Nc1cccc(NC(=S)NC(=O)c2ccccc2Cl)c1 | -0.5 | -0.5 | -0.2 | 2.1 | -0.4% | -4.8
CSCCC(NC(=O)c1ccco1)C(=O)NCc1ccc2c(c1)OCO2 (configuration not stated) | 0.5 | 5.8 | 0.0 | -3.9 | 2.6% | -0.2
C[C@@H]1CN(S(=O)C(C)(C)C)[C@H](CCO)/C1=C\CCO (some centres not stated) | -0.2 | 2.8 | 3.2 | 0.7 | -1.3% | -0.1
CCNC(=O)CCSc1nnc(-c2ccco2)o1 | 1.5 | 7.6 | -0.3 | -19.3 | -1.7% | -0.9
CCOC(=O)CNc1nc(-c2ccncc2)nc2ccccc12 | -16.8 | -6.9 | 2.6 | -1.0 | -0.6% | 3.4
Cc1cccc(NC(=O)CN(C)S(=O)(=O)c2cccc3nsnc23)c1C | 11.6 | -2.2 | -0.3 | -21.8 | 0.7% | -1.5
CC1=NCC(C)c2c1[nH]c1ccccc21 (configuration not stated) | -1.0 | -13.3 | 0.4 | -11.8 | 1.4% | -1.5
CC1Cc2ccccc2N1C(=O)c1cc2sccc2n1Cc1ccccc1 (configuration not stated) | -0.9 | 3.6 | 0.0 | -12.5 | -0.2% | -0.9
Cc1ccc(CNC(=O)C(NS(=O)(=O)c2cccc3nsnc23)c2ccccc2)cc1 (configuration not stated) | -6.2 | 7.8 | -0.4 | -20.3 | -2.7% | -5.0
COc1ccc(-c2nc(S(=O)(=O)c3ccccc3)c(N3CCCC3)o2)cc1 | 9.3 | 12.8 | -0.5 | -2.5 | -1.6% | -2.4
CC(C)C[C@@H](CN1CCCC1CN1C(=S)NC[C@@H]1Cc1ccc(O)cc1)N1C[C@H](Cc2ccccc2)N(CC2CCCCC2)C1=S (some centres not stated) | -8.4 | 0.0 | -0.4 | -1.0 | 15.9% | -0.7
COCCCNC(=O)C(C#N)c1nc2ccccc2nc1N1CCCC1 (configuration not stated) | -5.5 | -1.1 | 0.4 | -11.6 | 0.2% | -6.6
CC(=O)c1cccc(NC(=O)c2ccc([N+](=O)[O-])o2)c1 | 7.0 | 0.3 | 0.8 | 15.9 | -0.9% | ?
CCc1ccc(S(=O)(=O)c2cn(C)c3cc(OC)c(OC)cc3c2=O)cc1 | -26.9 | ? | 0.5&0.6 | -12.5 | -1.6%&0.6% | -1.6
Cc1nc(SC(C)C(=O)Nc2cccc(C(F)(F)F)c2)c2c(C)c(C(=O)O)sc2n1 (configuration not stated) | -10.7 | . | -0.7 | -3.8 | 0.0% | -1.9
COc1cccc(CN2CCNC(=O)C2CC(=O)NCCc2nc(C)c(C)s2)c1OC (configuration not stated) | 4.2 | . | -0.2 | -6.5 | -0.6% | -0.3
C[C@H](O)[C@@H]1CN2CCc3c([nH]c4ccccc34)[C@@H]2C[C@@H]1N(C)C(=O)Nc1ccccc1 | 6.8 | -3.9 | -0.1 | -7.9 | 0.2% | -1.7
Cc1oc(-c2cccs2)nc1CN1CCN(CC(C)C)C(CCO)C1 (configuration not stated) | -4.3 | 3.0 | -0.2 | -7.7 | 2.8% | 0.2
CC(NS(=O)(=O)c1ccc(Cl)cc1)C(=O)Nc1ccc2c(c1)OCCO2 (configuration not stated) | 3.3 | -12.3 | -0.4 | -10.7 | 1.0% | -1.1
COc1cccc2c1OCC(CN1CCN(Cc3ccccc3F)C(CCO)C1)=C2 (configuration not stated) | -6.2 | 6.8 | -0.2 | -0.9 | 4.7% | -5.2
CC(=O)CSc1nc2c(c(=O)[nH]c(=O)n2C)n1Cc1ccccc1Cl | 4.7 | -22.3 | -0.4 | 2.1 | 0.2% | -0.5
CCn1cc(Br)c(C(=O)NC(=S)Nc2ccc(C(=O)OC)cc2)n1 | 4.6 | -17.0 | -0.9 | -5.5 | 5.8% | -1.5
CC(=O)/C(C#N)=C1\NC(=O)C(Cc2ccc(F)cc2)S1 (configuration not stated) | 9.0 | -8.4 | 2.3 | -6.7 | -0.8% | -5.4
CCCCCCC(=O)N/N=C/c1ccco1 | -1.2 | 5.4 | -0.5 | -19.5 | 1.7% | -3.5
Cc1cn2c(-c3ccncc3)nnc2s1 | 21.7 | 0.0 | -0.1 | -23.4 | 0.5% | -3.3
CC(=O)Oc1c(C)c2c3c(c1OC(C)=O)[C@@H](C)CC[C@@H]3[C@@H](C)C[C@H]2C=C(C)C | -5.7 | -1.0 | 0.1 | 3.5 | 15.3% | 5.1
O=C(Nc1ccc2c(c1)OCO2)c1cc(C2CCCCN2C(=O)CCCc2ccccc2)on1 (configuration not stated) | -12.5 | -9.4 | -0.5 | -8.1 | -0.1% | 0.9
Cc1csc2ncc(C(=O)NCc3ccccn3)c(=O)n12 | -9.1 | -2.3 | -0.8 | -2.2 | -0.3% | 0.8
CCN1CCC(O)(/C=C/c2ccc(C(C)C)cc2)C(C(=O)/C=C/c2ccc(C(C)C)cc2)C1 (configuration not stated) | 1.5 | -4.8 | 7.3 | -34.2 | -2.0% | 1.7
CCOc1ccc(NC(=O)c2sccc2-n2cccc2)cc1 | -6.5 | . | 1.3 | -9.0 | 1.8% | -5.0
CSc1nnc(NC(=O)c2nc(S(=O)(=O)Cc3ccccc3F)ncc2Cl)s1 | -21.5 | -2.1 | -0.6 | 0.1 | 1.7% | 4.0
Cc1ccc(NC(=O)c2ccccc2N(C)S(C)(=O)=O)cc1C | 3.3 | 11.1 | 0.3 | -2.6 | 0.3%[38.3 µM] | -3.4
O=S1(=O)C[C@H](N2CCOCC2)[C@@H](COCc2ccccc2)N1 | -2.9 | 1.7 | -0.6 | -4.6 | -0.4% | -4.0
COc1ccc(N2CCN(C(=O)c3cc4c(-c5cccc(OC)c5)nn(C)c4s3)CC2)cc1 | ? | ? | 5.8 | 21.6 | -1.4% | -0.3
COc1ccc(-c2nnc(CSc3nnc(-c4ccncc4)n3C3CCCCC3)o2)cc1OC | 5.0 | 5.9 | -0.7 | 1.4 | 0.8%[38.3 µM] | -4.3
CCOC(=O)C1(Cc2ccccc2)CCN(Cc2cn[nH]c2-c2ccccc2)CC1 | -6.0 | -4.2 | 0.5 | -4.5 | 15.2% | -3.1
